Screening data as filed in PubChem.
PMP22 txn: Cell-based coincidence reporter assay to measure PMP22 gene transcription in S16 Pmp22-F2sN cells - Primary screen; Potency, µM (doses to about 57.5 µM), inactives show at the top dose activity change, negative = inhibition, actives largely listed as inhibitors; hit rate 2% among 43,000; S16 Pmp22-F2sN Schwann cells (luciferase reporters placed in the Pmp22 gene), FLuc/NLuc coincidence luminescence, 24 h; active = clear falling dose curves in both reporters; inconclusive = both reporters move, but less clearly or upward; inactive = either reporter flat; the % is the NLuc reporter signal; note: % is set by controls: 0 for no effect and ±100 for the full control effect; some results filed as inactive show a strong effect at the top dose
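Luminescent read-out of sequential FLuc and NLuc signals from a reporter embedded in the Pmp22 3' UTR of S16 Schwann cells, taken after 24 h compound exposure at 37C; compounds reducing both signals score as inhibitors of expression.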
HTT prom inh: Primary qHTS for Identification of Small Molecule Inhibitors of Huntingtin Promoter Activity. Potency, µM (highest dose often 57.5 µM), for the others: top-dose activity change, negative = inhibition, most hits filed as inhibitors. HEK293 HTT promoter firefly luciferase reporter (activity 0% = vehicle and -100% = no light), 24 h. hit rate 0.93% among 48,000; active = well fitted inhibition curve with a large enough effect; inconclusive = small, poorly fitted or top-dose-only effect; inactive = no such curve, though single readings can be large or run the other way; note: nearly all actives have a fitted effect of over 50% in size
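Quantitative HTS used concentration series of up to 57.5 uM final on HEK293 luciferase reporter cells, 24 h at 37 degrees C. Readout was Dual-Glo firefly luminescence.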
Active calls of the source: *; u = inconclusive; x = no result given; [ ] = dose if it differs, or a comment. Potency is the fitted concentration of half-maximal effect. Rows were taken by chance; 2.7% or so of the library scored in one or more.

The opening three compounds, ahead of the listing:
SMILES	PMP22 txn	HTT prom inh
O=C(Cn1cc(C(=O)C(F)(F)F)c2ccccc21)N1CCCCCC1	1.6%	-12.4%
CCOc1ccccc1NC(=O)CSc1c2c(nc3ccc(Cl)cc13)CCCC2	u	-5.6%
Cc1cc(C)c2c(n1)SCC(=O)N2CC(=O)Nc1cccc(C)c1C	-23.9%	-25.2%

All compounds of this part, from the first entry:
SMILES	PMP22 txn	HTT prom inh
O=C(Cn1cc(C(=O)C(F)(F)F)c2ccccc21)N1CCCCCC1	1.6%	-12.4%
CCOc1ccccc1NC(=O)CSc1c2c(nc3ccc(Cl)cc13)CCCC2	u	-5.6%
Cc1cc(C)c2c(n1)SCC(=O)N2CC(=O)Nc1cccc(C)c1C	-23.9%	-25.2%
Cc1cc(C)c2c(NC(=O)c3ccccc3Cl)c(C(=O)NCc3ccc(Cl)cc3)sc2n1	u	u
Cc1ccccc1Cn1cc(CCC(=O)NC(C)c2ccccc2)c2ccccc21 (stereo unspecified)	-6.0%	u
CCOc1ccccc1-c1nc(Cn2c(=O)cc(C)c3c(C)nn(-c4ccccc4)c32)c(C)o1	-10.6%	0.0%
COc1ccc(CCNC(=O)c2cc(=O)c3c(C)cc(C)cc3o2)cc1OC	u	u
CCOC(=O)c1c(C)oc2nc(C)nc(Nc3ccc(C)c(Cl)c3)c12	-1.8%	-6.5%
CN1CCN(C2=Nc3ccccc3Oc3ccc(Cl)cc32)CC1	x	-6.3%
CCOC(=O)c1c(S(=O)(=O)N2CCC(C(=O)Nc3ccc(OCC)cc3)CC2)c(C)n(C)c1C	2.4%	u
CN1C(=O)Cc2cc(S(=O)(=O)NCc3ccccc3Cl)ccc21	-25.8%	25.3%
CCCC(=O)O[C@]1(C(=O)COC(=O)CC)CC[C@H]2[C@@H]3CCC4=CC(=O)CC[C@]4(C)[C@H]3[C@@H](O)C[C@@]21C	x	-0.4%[25.2 µM]
Cc1ccc(NC(=O)COc2ccc(-c3nn(C)c(=O)c4ccccc34)cc2)c(C)c1	u	u
COc1ccc(Cl)cc1NC(=O)C1CCN(c2ncnc3c2nc2n3CCCCC2)CC1	-24.5%	-11.7%
COc1cc(NC(=O)C2CCN(c3nc4ccccc4nc3C(F)(F)F)CC2)cc(OC)c1	u	u
CCOc1ccc(NC(=O)c2c(NCc3cccs3)sc3c2CCC(C)C3)cc1 (stereo unspecified)	u	-23.4%
CC(C)(C)C(=O)Nc1ccc(-c2nc3ccccc3s2)cc1	-4.1%	-91.0%
O=C(CN1CCN(Cc2ccc(Cl)cc2)C1=O)NCc1ccc(F)cc1	-37.2%	-28.4%
CC(C)c1ccc(NC(=O)c2cccn2-c2nnc(N3CCCCC3)s2)cc1	u	-29.9%
CN(C)c1ccc(C(CNS(=O)(=O)c2ccc(Br)cc2)N2CCCC2)cc1 (stereo unspecified)	2.9%	-2.7%
COc1ccc(OC)c(Nc2c3c(nc4ccccc24)CCC3)c1	8.43µM*	u
Cc1nn(-c2ccccc2)c(OC(=O)c2ccc(Cl)cc2)c1S(=O)(=O)c1ccccc1	17.9%	-10.7%
Cc1ccc(NC(=O)CSCc2cnn(-c3ccccc3)c2-n2cccc2)c(C)c1	-27.6%	u
CCC1CCCCN1C(=O)Cn1c(=O)n(-c2ccc(Cl)c(Cl)c2)c(=O)c2c(C)c(C(=O)N(C)C)sc21 (stereo unspecified)	-25.0%	-2.1%
Cc1c2cnn(-c3ccccc3)c(=O)c2c(C)n1CC(=O)Nc1ccccc1Br	u	-12.1%
COc1cc(OC)c(NC(=O)COCc2cc(-c3cccs3)on2)cc1Cl	-10.8%	-18.8%
Cc1cc2n(n1)CCC(=O)N2Cc1ccc(C(=O)Nc2ccc(F)cc2F)cc1	u	u
COc1ccc2cc3c(N)nn(C(=O)c4ccc(F)cc4Cl)c3nc2c1	u	u
Cc1ccc(NC(=O)CCCN2C(=O)COc3ccc(C)cc32)c(C)c1	-42.7%	-11.3%
CCOc1ccc(CCNc2nc3ccccc3n3c(C)nnc23)cc1OCC	u	-11.1%
CCCCc1ccc(-n2nc3cc(C)c(NC(=O)Cc4ccccc4)cc3n2)cc1	-23.5%	1.8%
COc1ccc(-c2[nH]ncc2C(=O)NCc2ccccc2C)cc1	-1.6%	-21.1%
Cc1ccc(-n2c(=O)c3c(cnn3C)n(CC(=O)Nc3c(C)cccc3C)c2=O)cc1	-8.5%	-14.6%
Cc1nc2cc(-c3cccc(F)c3)nn2c(C)c1CCC(=O)Nc1ccccc1C(N)=O	-13.8%	2.24µM*
CCc1cc(C(C)=NOCc2ccc(C3CCCCC3)c(C(F)(F)F)c2)ccc1CN1CC(C(=O)O)C1	x	-11.3%
Cc1ccc(-n2nc(C(=O)N(C)c3ccccc3Cl)c3c4ccccc4n(C)c3c2=O)cc1	u	u
COc1ccccc1C(=O)Nc1ccccc1OCc1cc(=O)n2ccccc2n1	-27.5%	-0.4%
O=C1COc2cc(S(=O)(=O)CCC(=O)N3CCN(c4cccc(Cl)c4)CC3)c(Cl)cc2N1	u	u
Cc1cc(C)cc(NC(=O)Cc2csc(COc3cccc(C)c3)n2)c1	-13.7%	-16.6%
COc1ccc(C)c2sc(NC(=O)c3ccc(S(=O)(=O)N4CCOCC4)cc3)nc12	-12.0%	-1.4%
CC(=O)c1c(C)nc2nc(-c3ccccc3)nn2c1C	6.6%	39.3%[activator]
CC(=O)SCC(Cc1ccccc1)C(=O)NCC(=O)OCc1ccccc1 (stereo unspecified)	x	u
Cc1ccccc1OCCCCn1nnc2sc3c(c2c1=O)CCC(C)C3 (stereo unspecified)	-7.3%	3.0%
Cc1cccc(NS(=O)(=O)c2ccc3[nH]c(=O)[nH]c3c2)c1C	-32.1%	-15.8%
COc1cccc(NC(=O)Cn2cc(C(=O)C3CCCCC3)c3ccccc32)c1	-9.8%	u
COc1ccccc1CNC(=O)c1ccc2c(c1)nnn2C1CCCC1	-93.7%	-1.2%
COC(=O)c1c(NC(=O)c2ccc(S(=O)(=O)N3CCCCC3)cc2)sc2c1CCN(C)C2	u	-10.4%
O=C(c1ccc(CS(=O)c2ccccc2Cl)o1)N1CCN(c2ccccc2F)CC1 (stereo unspecified)	u	u
O=S(=O)(Nc1nc2ccccc2nc1Nc1ccccc1Br)c1ccccc1	-8.7%	-9.1%
COc1cc(-c2noc(-c3ccc(NCc4ccccc4)c([N+](=O)[O-])c3)n2)cc(OC)c1OC	-15.7%	-6.2%
CCc1ccc(C2=NN(CCC(=O)NCCc3ccc(OC)c(OC)c3)C(=O)CC2)cc1	-2.7%	-27.6%
CC(C)c1nnc(N2C(=O)c3oc4ccccc4c(=O)c3C2c2cccc(O)c2)s1 (stereo unspecified)	-0.3%	-6.2%[11.5 µM]
CCCCCCCCCCCCCCCC[n+]1ccccc1	x	u
CCc1c(C)sc(NC(=O)C2c3ccccc3Oc3ccccc32)c1C(=O)OC(C)C	-56.7%	-4.2%
Cc1cccn2c(=O)c3cc(C#N)c(=O)n(-c4nnc(SCc5ccc(Cl)cc5)s4)c3nc12	-20.4%	2.5%
Cc1cccc(-c2nc(SCCCOc3ccccc3Cl)n3[nH]c(=O)cc3n2)c1	-113.8%	-4.3%
Cc1ccccc1C(=O)Nc1cccc(OCc2cc(=O)n3cccc(C)c3n2)c1	-63.6%	10.8%
COc1ccc(NC(=O)CCc2c(C)nc3c(c2C)c(=O)n(C)c(=O)n3C)c(OC)c1	-26.1%	-13.9%
O=C(CCCCn1c(=O)c2ccccc2n(CC(=O)Nc2ccccc2)c1=O)NCc1ccccc1Cl	-19.5%	-1.7%
CC(C)(C)c1ccc(C(=O)N2CCN(Cc3cc(=O)n4nc(-c5ccccc5F)sc4n3)CC2)cc1	40.6%	-2.6%

More structures
SMILES	PMP22 txn	HTT prom inh
CN(c1ccccc1)S(=O)(=O)c1nnc(NC(=O)c2ccccc2)s1	34.6%	-7.5%
Cc1c(C(=O)Nc2cccc(Cl)c2)sc2nc3n(c(=O)c12)N=C(c1cccc(Br)c1)CS3	u	-15.1%
CNC(=O)c1ccc(-c2nc(CN3CCc4ccccc43)c(C)o2)cc1	-102.0%	-22.8%
COc1cc(NC(=O)N2CCSc3ccccc32)cc(OC)c1OC	0.5%	-5.4%
Cc1cccc(CSc2nc(=O)c3c(n2C)NC(=O)CC3c2cccc(O)c2)c1 (stereo unspecified)	4.9%	-12.9%
COCCNC(=O)Cc1ccc(NC(=O)N2CCCCc3ccccc32)cc1	-9.9%	-3.5%
CCc1nn(C(CC)C(=O)NCc2ccc(OC)c(OC)c2)c(=O)c2cc3oc(C)cc3n12 (stereo unspecified)	u	u
CC(C)Oc1ccc(CNC(=O)C2CCN(C(=O)c3sccc3-n3cccc3)CC2)cc1	-23.3%	-29.5%
CCC1CN(C(=O)N2CCC(C(=O)N3CCN(c4ccc(F)cc4)CC3)CC2)c2ccccc2O1 (stereo unspecified)	-11.8%	u
O=C(Cn1c(=O)nc(-c2ccccc2F)c2cc(Cl)ccc21)Nc1ccccc1C(F)(F)F	-2.7%	24.9%
Cc1cccc(NC(=O)C2CCN(c3nc4ccccc4[nH]3)CC2)c1C	-5.0%	-3.4%
CCc1ccc2occ(CC(=O)N(Cc3ccccc3)C3CCS(=O)(=O)C3)c2c1 (stereo unspecified)	0.4%	-16.7%
O=C(NCc1cccc(Cl)c1)c1ccc(NC(=O)N2CCSc3ccccc32)cc1	-4.8%	-14.0%
CC(C)c1ccc(NC(=O)CSc2nc(=O)n(Cc3ccccn3)c3c2CCC3)cc1	u	u
CCn1cc(S(=O)(=O)c2ccccc2)c(=O)c2cc(F)c(F)cc21	-4.6%	-15.0%
CN(c1ccc(F)cc1)S(=O)(=O)N1CCCC(C(=O)NCc2ccccc2Cl)C1 (stereo unspecified)	-31.5%	u
O=C(Nc1cccc(Cl)c1)c1ccc2c(c1)CCN2S(=O)(=O)c1ccccc1	u	u
O=C(NCCc1csc2nc(-c3ccc(F)cc3)nn12)c1ccco1	-13.5%	-22.9%
COc1ccccc1CNC(=O)c1cn(C)c2ccc(S(=O)(=O)N(C)C3CCCCC3)cc2c1=O	-30.5%	-24.5%[11.5 µM]
O=C(COCc1cc(-c2cccs2)on1)Nc1ccc(OC(F)(F)F)cc1	-17.4%	-1.3%
COc1ccccc1N1CCN(C(=O)c2cc3c(=O)n(Cc4cccnc4)ccc3nc2C)CC1	1.3%	-3.8%
COc1ccccc1-c1nnc(SCC(N)=O)o1	-0.6%	0.0%
Cc1ccc(CSc2nc3ccncc3n2Cc2nc(-c3ccc(Cl)cc3)oc2C)cc1	-49.4%	13.5%
O=C(COc1ccc(F)cc1)OCc1cc(=O)n2nc(C3CCCCC3)sc2n1	-7.3%	-8.6%
CCCCNC(=O)C(CC)Sc1nnc(-c2ccc(OC)c(OC)c2)c(-c2ccc(OC)c(OC)c2)n1 (stereo unspecified)	-0.5%	-12.1%
COc1ccc(-c2nc3ccccc3s2)cc1NC(=O)COc1ccccc1C	-20.2%	0.3%
CCC(=O)N1CCc2cc(S(=O)(=O)NCc3ccc(C)cc3)ccc21	u	-25.1%
COc1ccccc1N1CCN(CCCCNC(=O)c2ccc(-c3ccc(C(C)=O)cc3)cc2)CC1	x	-2.1%
CCOC(=O)c1ccc(N2C(=O)c3[nH]nc(-c4ccccc4)c3C2c2cccs2)cc1 (stereo unspecified)	u	15.8µM*
CCNC(=O)CC1C(=O)N(c2ccc(F)cc2)C(=O)N1Cc1ccc(OC)c(OC)c1 (stereo unspecified)	-3.4%	-7.5%

As a short view, part of the list above.
SMILES	PMP22 txn	HTT prom inh
CCC(=O)N1CCc2cc(S(=O)(=O)NCc3ccc(C)cc3)ccc21	u	-25.1%
COc1ccccc1N1CCN(CCCCNC(=O)c2ccc(-c3ccc(C(C)=O)cc3)cc2)CC1	x	-2.1%
CCOC(=O)c1ccc(N2C(=O)c3[nH]nc(-c4ccccc4)c3C2c2cccs2)cc1 (stereo unspecified)	u	15.8µM*
CCNC(=O)CC1C(=O)N(c2ccc(F)cc2)C(=O)N1Cc1ccc(OC)c(OC)c1 (stereo unspecified)	-3.4%	-7.5%

New compounds follow
SMILES	PMP22 txn	HTT prom inh
COc1ccc(-n2nnc(-c3nc(-c4cccs4)no3)c2N)cc1OC	8.0%	9.4%
COc1ccc(N(Cc2cccs2)C(=O)COc2ccc(C(C)C)cc2)cc1	u	u
O=C(CN1C(=O)C2(SCC(=O)N2c2ccccc2)c2ccccc21)NCCc1ccccc1 (stereo unspecified)	-16.0%	-18.4%
CCOc1ccc(-c2nc(CSCC(=O)N3CCN(c4ccc(F)cc4)CC3)c(C)o2)cc1	u	-17.1%
CCOCCc1nn2c(=O)cc(COC(=O)CNC(=O)c3ccc(F)cc3)nc2s1	-23.5%	-8.9%
Cc1ccccc1NC(=O)CN1C(=O)CCn2nc(-c3cccn3C)cc21	-8.2%	11.8%
Cc1cc(F)ccc1NC(=O)Cn1c(=O)ccc2cc(S(=O)(=O)N3CCC(C)CC3)ccc21	u	u
CCCCc1nn2c(=O)cc(COC(=O)c3ccccc3NC(=O)C(C)(C)C)nc2s1	2.6%	-12.7%
CC(C)c1cc(C(=O)NCc2ccc(F)cc2)no1	-18.7%	55.4%[activator]
Cc1cccc(-n2c(SCc3nc(-c4ccccc4C)no3)nnc2-c2ccccc2)c1	10.4%	-8.1%
O=C(COc1ccccc1)NCCc1csc(-c2ccc(F)cc2)n1	u	-19.1%
